FGF22 binding – binders of recombinant human FGF22 by thermal shift; SYPRO orange fluorescence; percent of sucrose octasulfate shift, DMSO zero; calls only at 9.99 µM; hit rate 1.5% among 340,000; AID 651658;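 active means melting point raised past a set limit in the mean and every replicate; three in four hits are not shown here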
Target sequence (Q9HCT0 whole entry, looked up): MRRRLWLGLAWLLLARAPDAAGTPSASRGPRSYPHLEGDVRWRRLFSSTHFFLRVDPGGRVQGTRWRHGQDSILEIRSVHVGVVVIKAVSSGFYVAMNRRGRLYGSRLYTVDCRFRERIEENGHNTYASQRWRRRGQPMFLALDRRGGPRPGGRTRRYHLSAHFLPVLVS
rRNA inh HTS – inhibitors of bacterial rRNA selective over humanized ribosomes | E. coli WT GFP vs humanized-ribosome RFP mutants, fluorescence, 24 h; hits give low values; DMSO median 0, no signal -100 | GFP signal change (wild-type ribosome), % (test concentration not listed) | hit rate 1.6% among 350,000 | AID 720706;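 active means significant combined selectivity score with lowered wild-type GFP, culture density cut under 30%, mutant RFP and density less affected; inactive means any of these conditions unmet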; further: one replicate is shown; some compounds called inactive have numbers as strong as hits
AF4-AF9 inh – blocks AF4 peptide binding to human AF9; hit rate 0.47% among 350,000; AlphaScreen, biotin-AF4 peptide binding to FLAG-AF9; inhibition, % at 10 µM; P42568;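 active means every replicate reaching a set inhibition limit, whatever the replicate mean, cut at about 25% in these data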;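 further: 0% = plate neutral control median and 100% = total signal loss; the record names both 10 and 1 µM as test concentration; the first replicate is given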
Target sequence (P42568 whole entry, looked up): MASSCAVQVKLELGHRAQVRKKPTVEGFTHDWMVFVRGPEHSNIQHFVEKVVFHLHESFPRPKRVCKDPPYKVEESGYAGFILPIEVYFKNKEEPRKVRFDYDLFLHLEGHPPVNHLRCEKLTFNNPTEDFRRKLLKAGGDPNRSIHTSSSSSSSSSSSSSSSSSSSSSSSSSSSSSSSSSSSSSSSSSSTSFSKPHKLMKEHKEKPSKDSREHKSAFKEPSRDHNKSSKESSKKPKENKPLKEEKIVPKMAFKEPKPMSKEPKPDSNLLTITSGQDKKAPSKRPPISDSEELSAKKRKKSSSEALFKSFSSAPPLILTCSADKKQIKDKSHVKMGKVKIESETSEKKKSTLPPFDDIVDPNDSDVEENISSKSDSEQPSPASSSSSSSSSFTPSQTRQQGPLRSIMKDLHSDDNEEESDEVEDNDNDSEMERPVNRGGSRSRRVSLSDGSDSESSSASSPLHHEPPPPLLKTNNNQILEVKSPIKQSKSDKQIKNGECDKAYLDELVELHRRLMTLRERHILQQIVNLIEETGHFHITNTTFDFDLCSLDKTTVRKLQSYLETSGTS
rRNA inh HTS OD600 – also measured in rRNA inh HTS; calls as there; OD600 change, %; measured here: OD600 growth;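 optical density of the mix in the first replicate; 0 = DMSO median and -100 = no signal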
rRNA inh HTS RFP – further read-out of rRNA inh HTS, marked with its call; RFP signal change, %; measured here: RFP humanized mutant strains;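 first replicate; 0 = DMSO median and -100 = no signal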
Numbers without * were called inactive; i = inactive; + = active, no number; & = joins results of further samples. The list is partial (hit frequency here may not be typical).

FGF22 binding	rRNA inh HTS	AF4-AF9 inh	rRNA inh HTS OD600	rRNA inh HTS RFP	SMILES
i	-4	1.7	-2	4.3	C[C@H]1CN([C@@H](C)CO)C(=O)c2c(c3ccccc3n2C)-c2ccccc2CO[C@H]1CN(C)Cc1ccc2c(c1)OCO2
i	6	-2.0	16	-5.3	COCC(=O)N1CC[C@H]2[C@H](CO)Nc3ccc(-c4cccc(C(=O)N(C)C)c4)cc3[C@H]21
i	-5	-1.2	-10	-3.2	O=C(C[C@H]1CC[C@@H]2[C@H](COC[C@@H](O)CN2Cc2ccccc2)O1)NCc1ccccc1Cl
i	-2	-2.6	-19	2.8	C[C@H]1CCCCO[C@H](CN(C)C(=O)Nc2cccc3ccccc23)[C@@H](C)CN([C@@H](C)CO)C(=O)c2cc(NS(C)(=O)=O)ccc2O1
i	3	-4.2	-1	-3.3	C[C@@H]1CN([C@@H](C)CO)S(=O)(=O)c2ccc(-c3cccc(F)c3)cc2O[C@H]1CN(C)S(=O)(=O)c1ccc(F)cc1
i	-54	0.7	-76	-14	COc1ccc(S(=O)(=O)N2C[C@@H](O)COC[C@H]3O[C@H](CC(=O)NCc4ccc(Cl)c(Cl)c4)CC[C@@H]32)cc1
i	10	0.7	14	0.0	C=C(CCO)C1=CCN(S(=O)(=O)C(C)(C)C)[C@H]1CCO
i	-60	3.0	-72	-17	CCc1nc2c(OCc3ccc(F)c(F)c3)cccn2c1N(C)C(=O)c1cccs1
+	-8	4.0	-30	-1.1	CSc1nc2nc(Cl)c(Cl)nc2[nH]1
i	8	4.0	13	11	CC(C)C[C@@H](CN1CCCC1CN1C(=S)NC[C@@H]1Cc1ccc(O)cc1)N1C[C@H](Cc2ccccc2)N(CC2CCCCCC2)C1=S (some centres not stated)
i	-3	-2.7	4	-3.6	COc1ccc(NC(=O)N(C)C[C@H]2OCCCC[C@@H](C)Oc3ccc(NC(=O)Nc4ccccc4)cc3C(=O)N([C@H](C)CO)C[C@@H]2C)cc1
i	1	-1.9	3	-1.3	COC(=O)[C@@H]1[C@@H](CO)[C@@H]2Cn3c(ccc(C4=CCCC4)c3=O)[C@@H]2N1C(=O)C1CCCC1
i	8	-3.7	20	2.1	CC(=O)c1cccc(OC(=O)Oc2cccc(C(C)=O)c2)c1
i	1	1.6	4	-0.9	CN(CCCn1ccc(NC(=O)OCc2ccccc2)nc1=O)Cc1ccco1
i	5	-0.5	22	-1.4	COC(=O)c1nc[nH]c1[N+](=O)[O-]
i	2	-7.9	10	-3.6	CC1(C)OC(=O)C2=C(C[C@@H](C3CCCCC3)O[C@@H]2c2ccc(Cl)cc2)O1
i	20	-6.4	16	0.7	NC(=O)NN=C(C1CC1)C1CC1
i	1	0.7	5	-1.9	CCCN(C)C[C@H]1OCCCC[C@H](C)Oc2ccc(NS(=O)(=O)c3ccc(F)cc3)cc2C(=O)N([C@H](C)CO)C[C@H]1C
i	-2	-8.7	-7	3.2	COc1ccc(NC(=O)N(C)C[C@H]2Oc3ncc(C#CCC(C)C)cc3C(=O)N([C@H](C)CO)C[C@@H]2C)cc1
i	2	-12	2	-2.0	Cc1ccc(S(=O)(=O)N(C)C)cc1NC(=O)COC(=O)CCNS(=O)(=O)c1ccccc1
i	0	13	-1	0.6	c1ccc2[nH]c(CCCCCc3nc4ccccc4[nH]3)nc2c1
i	4	-2.2	6	0.6	O=C(C[C@H]1CC[C@H](NC(=O)Nc2ccccc2)[C@H](CO)O1)NCc1ccccn1
i	1	-3.0	1	-0.9	CN(C)CC(=O)N1[C@@H]2Cn3c(ccc(-c4ccccc4)c3=O)[C@H]1[C@@H](C(=O)N1CCCCC1)[C@@H]2CO
i	0	0.9	15	1.4	N#C[C@@H]1[C@@H](c2ccccc2-c2ccccc2F)[C@H](CO)N1C(=O)c1cccc(F)c1
i	-5	2.8	-15	2.5	CC(C)C#Cc1ccc2c(c1)O[C@H](CN(C)Cc1cncnc1)[C@@H](C)CN([C@H](C)CO)S2(=O)=O
i	-4	4.7	-4	-1.6	C[C@H](CO)N1C[C@H](C)[C@H](CN(C)Cc2ccccc2C(=O)O)Oc2cc(C#CC3CCCC3)ccc2S1(=O)=O
i	4	-1.0	14	-1.1	C[C@H](CO)N1C[C@H](C)[C@@H](CN(C)C(=O)C2CCC2)Oc2ncc(-c3cccc(C#N)c3)cc2C1=O
i	3	-0.6	7	-0.6	Cc1noc(C)c1NC(=O)Nc1ccc2c(c1)C(=O)N(C)[C@H]1CC[C@@H](CC(=O)N(C)C)O[C@@H]1CO2
i	-3	-1.2	-1	-1.9	CC(=O)N(C)C[C@H]1Oc2cc(C#CC3(O)CCCC3)ccc2S(=O)(=O)N([C@H](C)CO)C[C@@H]1C
i	-45	3.4	-70	-11	N#C[C@@H]1[C@H](c2ccc(C#CCC3CCCC3)cc2)[C@H](CO)N1C(=O)CN1CCOCC1
i	-3	-0.9	-4	0.0	C[C@H](CO)N1C[C@H](C)[C@@H](CN(C)C(=O)c2ccccc2)OCCCC[C@H](C)Oc2ccc(NC(=O)C3CCCCC3)cc2C1=O
i	0	-1.7	-3	1.3	CC(C)NC(=O)N(C)C[C@@H]1OCCCC[C@H](C)Oc2ccc(NC(=O)Nc3ccc(F)cc3)cc2C(=O)N([C@@H](C)CO)C[C@H]1C
i	-5	4.1	-6	1.3	COC(=O)[C@@]12C[C@@H](CC(=O)NCc3ccccc3)C(=O)N(Cc3ccc4c(c3)OCO4)C1=CCC(C)(C)C2
i	1	-1.7	3	1.5	CCC(=O)N(C)C[C@H]1Oc2ncc(C#CC(C)(C)O)cc2C(=O)N([C@H](C)CO)C[C@@H]1C
i	0	-0.1	16	-3.2	CCC(=O)N1CC2(C1)CN(Cc1cccc(OC)c1)[C@H](CO)c1[nH]c3cc(OC)ccc3c12
i	-2	-1.9	2	0.9	COc1ccc(CN(CCCn2cnc3c(OC)ncnc32)CCCn2cnc3c(OC)ncnc32)cc1
i	0	-20	-5	0.5	Cc1ccccc1S(=O)(=O)N1C[C@H](O)COC[C@H]2O[C@@H](CC(=O)O)CC[C@@H]21
i	4	-1.5	-3	0.0	C[C@@H]1CN([C@H](C)CO)C(=O)c2cc(NC(=O)CCC(F)(F)F)ccc2O[C@@H](C)CCCCO[C@H]1CN(C)C(=O)Nc1ccc(C(F)(F)F)cc1
i	1	-6.9	-1	1.6	Cc1cccc(-c2ccc([C@H]3[C@H]4CN(S(=O)(=O)c5ccccc5F)CCCCN4[C@H]3CO)cc2)c1
i	-3	-8.9	9	23	COc1ccc(-c2cc(NC=O)c3ncc(-c4cccc(C(F)(F)F)c4)n3c2)c(OC)c1
i	3	0.3	23	0.1	COCCn1c(N)c(N(Cc2ccccc2)C(=O)C(C)Oc2ccc(Br)cc2)c(=O)[nH]c1=O (configuration not stated)
i	-4	-0.4	1	-0.1	C[C@H](CO)N1C[C@H](C)[C@H](CN(C)C(=O)NC2CCCCC2)Oc2ncc(-c3ccccc3F)cc2C1=O
i	1&4	0.4	8&12	-5.8&-2.5	C[C@@H]1CN([C@H](C)CO)C(=O)c2c(c3ccccc3n2C)-c2ccccc2CO[C@H]1CN(C)Cc1ccc(C(F)(F)F)cc1
i	0	-2.4	0	5.0	C[C@H]1CN([C@@H](C)CO)C(=O)c2cc(NS(=O)(=O)c3ccc(Cl)cc3)ccc2O[C@H]1CN(C)Cc1ccncc1
i	-2	-0.5	3	-0.7	Cc1ccccc1CN(C)C[C@@H]1OCc2cnnn2CCCC(=O)N([C@@H](C)CO)C[C@@H]1C
i	-4	10	-45	31	C[C@@H]1CN([C@@H](C)CO)C(=O)c2cc(/C=C/c3ccccc3)cnc2O[C@@H]1CN(C)Cc1ccc2c(c1)OCO2
i	2	-5.4	-2	-0.8	CN(Cc1ccccc1)C(=O)C(=O)c1c[nH]c2ccccc12
i	7	-2.0	10	-0.3	CC(C)CC#Cc1cnc2c(c1)C(=O)N([C@@H](C)CO)C[C@H](C)[C@H](CN(C)C(=O)c1cccnc1)O2
i	-7	-1.6	0	-1.8	C[C@H]1CN([C@@H](C)CO)S(=O)(=O)c2ccc(-c3ccccc3)cc2O[C@H]1CN(C)S(C)(=O)=O
i	-3	3.4	-11	8.3	Cc1ccc(-c2ccc3c(c2)O[C@@H](CN(C)Cc2cncnc2)[C@@H](C)CN([C@@H](C)CO)S3(=O)=O)cc1

More results:
FGF22 binding	rRNA inh HTS	AF4-AF9 inh	rRNA inh HTS OD600	rRNA inh HTS RFP	SMILES
i	3	-4.7	-5	-4.7	C[C@H]1CN([C@@H](C)CO)C(=O)c2cc(-c3cccc(F)c3)cnc2O[C@H]1CN(C)C(=O)C1CCOCC1
i	-1	-1.4	8	-0.4	O=C(C[C@H]1C[C@H]2c3cc(NC(=O)Nc4ccccc4)ccc3O[C@H]2[C@H](CO)O1)NC1CCCCC1
i	-1	-1.2	-1	3.3	C[C@@H]1CN([C@@H](C)CO)C(=O)c2cc(NC(=O)C3CCCCC3)ccc2O[C@@H](C)CCCCO[C@@H]1CN(C)C(=O)Nc1ccc2c(c1)OCO2
i	12	-2.7	14	11	CC(C)C[C@H]1CNC(=S)N1C[C@H]1CCCN1C[C@H](Cc1ccc(O)cc1)N1C[C@H](Cc2ccccc2)N(CCc2ccccc2)C1=S
i	0	-1.5	-5	1.1	COc1ccc(S(=O)(=O)Nc2ccc3c(c2)C(=O)N([C@@H](C)CO)C[C@@H](C)[C@@H](CN(C)S(=O)(=O)c2ccc(C)cc2)OCCCC[C@@H](C)O3)cc1
i	1	-1.6	-2	1.1	C/C=C/c1ccc([C@@H]2[C@H](CO)N(C(C)=O)C23CN(C(=O)c2ccc(F)cc2)C3)cc1
i	25	-2.1	27	2.9	CCC[C@@H]1C=C(C(=O)OCC)[C@H](c2ccccc2)N1S(=O)(=O)c1ccc(C)cc1
i	0	-0.4	2	-2.9	COc1ccc(S(=O)(=O)N(C)C[C@@H]2Oc3ccc(NC(=O)NC(C)C)cc3CC(=O)N([C@H](C)CO)C[C@H]2C)cc1
i	18	0.9	14	2.1	CC1=C(C(=O)N(C(C)C)C(C)C)CC(CC(=O)NCc2cccc3ccccc23)C(=O)N1Cc1ccc(C(C)(C)C)cc1 (configuration not stated)
i	2	-2.7	-1	-0.5	CC(C)NC(=O)N(C)C[C@@H]1OCCCC[C@H](C)Oc2ccc(NC(=O)c3ccccc3)cc2C(=O)N([C@@H](C)CO)C[C@@H]1C
i	-1	-3.7	-2	-0.1	C[C@H](CO)N1C[C@H](C)[C@@H](CN(C)C(=O)C2CCOCC2)Oc2cc(C#Cc3ccncc3)ccc2S1(=O)=O
i	2	-0.9	3	3.2	COc1ccc2[nH]c3c(c2c1)CCN1C(=O)C(CC(=O)NCc2cccc(C(F)(F)F)c2)C[C@H](C(=O)N2CCCCC2)[C@@]31CCc1ccccc1 (some centres not stated)
i	0	-19	7	0.1	COc1ccc2c3c(n(C)c2c1)[C@@H](CO)N(C(=O)C1CCOCC1)CC31CN(C(=O)C2CC2)C1
i	1	0.0&-1.7	-5	-0.8	C[C@@H]1CN([C@H](C)CO)C(=O)CCCn2nncc2CO[C@@H]1CN(C)S(=O)(=O)c1cccc(C#N)c1

Some of the entries so far, bar-delimited.
Compound | FGF22 binding | rRNA inh HTS | AF4-AF9 inh | rRNA inh HTS OD600 | rRNA inh HTS RFP
C[C@@H]1CN([C@@H](C)CO)C(=O)c2cc(NC(=O)C3CCCCC3)ccc2O[C@@H](C)CCCCO[C@@H]1CN(C)C(=O)Nc1ccc2c(c1)OCO2 | i | -1 | -1.2 | -1 | 3.3
C/C=C/c1ccc([C@@H]2[C@H](CO)N(C(C)=O)C23CN(C(=O)c2ccc(F)cc2)C3)cc1 | i | 1 | -1.6 | -2 | 1.1
COc1ccc(S(=O)(=O)Nc2ccc3c(c2)C(=O)N([C@@H](C)CO)C[C@@H](C)[C@@H](CN(C)S(=O)(=O)c2ccc(C)cc2)OCCCC[C@@H](C)O3)cc1 | i | 0 | -1.5 | -5 | 1.1

Some of the entries so far, with each value named.
CC1=C(C(=O)N(C(C)C)C(C)C)CC(CC(=O)NCc2cccc3ccccc23)C(=O)N1Cc1ccc(C(C)(C)C)cc1 (configuration not stated)
  FGF22 binding: i | rRNA inh HTS: 18 | AF4-AF9 inh: 0.9 | rRNA inh HTS OD600: 14 | rRNA inh HTS RFP: 2.1

COc1ccc2[nH]c3c(c2c1)CCN1C(=O)C(CC(=O)NCc2cccc(C(F)(F)F)c2)C[C@H](C(=O)N2CCCCC2)[C@@]31CCc1ccccc1 (some centres not stated)
  FGF22 binding: i | rRNA inh HTS: 2 | AF4-AF9 inh: -0.9 | rRNA inh HTS OD600: 3 | rRNA inh HTS RFP: 3.2

CC(C)C[C@H]1CNC(=S)N1C[C@H]1CCCN1C[C@H](Cc1ccc(O)cc1)N1C[C@H](Cc2ccccc2)N(CCc2ccccc2)C1=S
  FGF22 binding: i | rRNA inh HTS: 12 | AF4-AF9 inh: -2.7 | rRNA inh HTS OD600: 14 | rRNA inh HTS RFP: 11

COc1ccc(S(=O)(=O)N(C)C[C@@H]2Oc3ccc(NC(=O)NC(C)C)cc3CC(=O)N([C@H](C)CO)C[C@H]2C)cc1
  FGF22 binding: i | rRNA inh HTS: 0 | AF4-AF9 inh: -0.4 | rRNA inh HTS OD600: 2 | rRNA inh HTS RFP: -2.9
